AmpC nodet inh – blocks E. coli AmpC beta-lactamase in absence of detergent; P00811; AmpC nitrocefin hydrolysis, absorbance 480 nm, no detergent; potencies from a single point are estimates; Potency, µM (highest dose often 28.7 µM), for inactives: top-dose activity change, negative = inhibition; 1.8% of 71,000 active; active = falling curve, for most hits resting on a single point; inconclusive = weak or doubtful change; inactive = flat or rising curve; also: % of control where 0% means no effect; about half of the hits show no inhibition at the top dose; a quarter of the inactives give rising signals
Target sequence (P00811 whole entry, looked up): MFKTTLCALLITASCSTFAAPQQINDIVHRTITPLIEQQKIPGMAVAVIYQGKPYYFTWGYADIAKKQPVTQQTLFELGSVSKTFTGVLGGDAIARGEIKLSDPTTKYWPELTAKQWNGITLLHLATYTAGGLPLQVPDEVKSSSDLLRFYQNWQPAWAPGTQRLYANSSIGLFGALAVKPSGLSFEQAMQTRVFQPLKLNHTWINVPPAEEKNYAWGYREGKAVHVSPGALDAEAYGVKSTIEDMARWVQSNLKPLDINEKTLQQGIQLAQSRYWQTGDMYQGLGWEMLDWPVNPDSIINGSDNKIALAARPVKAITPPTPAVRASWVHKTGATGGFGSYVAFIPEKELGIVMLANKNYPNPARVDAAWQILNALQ
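Enzyme, pH 7.0 phosphate. Compound titrations were pre-incubated with AmpC for 15 min at room temperature before nitrocefin (stock 800 uM) addition; product formation was recorded at 480 nm every 20 s for 4 min.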
* marks the source's active call; other numbers are inactive results; ? = inconclusive; [ ] = remark or other dose. Potency is read from the fitted curve at half-maximal effect. Only part of the results is shown, so the mix of outcomes need not match the whole.

no.	Compound	AmpC nodet inh
1	O=C(c1csnn1)N1CCC2(CCCN(Cc3cc(C(F)(F)F)cc(C(F)(F)F)c3)C2)CC1	88%
2	Cc1cc(=O)n2[nH]c(-c3ccc(F)cc3)cc2n1	-6%
3	CC1(C)C(C#N)=C(N)OC2=C1C(=O)CCC2	5%
4	CCCCCCC(C)(C)c1ccc([C@@H]2C[C@H](O)CC[C@H]2CCCO)c(O)c1	117%
5	CCCN1Cc2cccc(C(=O)Nc3ccc(N4CCN(CC)CC4)cc3)c2C1=O	30%
6	C(=N\c1nc2ccccc2n1CCN1CCOCC1)/c1cccs1	110%
7	O=S(=O)(c1ccc(S(=O)(=O)n2cnc3ccccc32)cc1)N1CCCCCC1	-14%
8	C[N+]12CCC(CC1)C(C#N)(N1CCOCC1)C2 (centres undefined)	-7%
9	CCCc1[nH]nc2c1C(c1ccc(OC)cc1OC)C(C#N)=C(N)O2 (centres undefined)	15%
10	CCOC(=O)N1CCN(Cc2nc3c(c(=O)[nH]c(=O)n3C)n2Cc2ccccc2C)CC1	72%
11	COc1ccc(OC)c(Nc2cc(C)nc3ccccc23)c1	9%
12	O=C(c1cc2c(s1)CCCC2)N1CCN(C(=O)C2CCCO2)CC1 (centres undefined)	11%
13	CC(C)(C)c1cc(CN(CCO)CCO)cc(C(C)(C)C)c1O	18%
14	O=c1c2ccccc2sc2nc(C3CCCCC3)n(Cc3ccco3)c(=O)c12	16%
15	COc1ccccc1N(C)S(=O)(=O)c1ccc(C(=O)OCC(=O)NCc2ccco2)cc1	26%
16	CCN(CC)S(=O)(=O)c1ccc(NC(=O)c2ccc(NS(C)(=O)=O)cc2)cc1	-4%
17	COc1ccc2c(CC(=O)Nc3nnc(C4CC4)s3)coc2c1	-23%
18	CCOC(=O)C1CCN(CC(=O)Nc2c(C(=O)OC)[nH]c3ccccc23)CC1	51%
19	CCN1C(=O)/C(=C\N2CCCCCC2)SC1=S	8%
20	COc1ccc(N(CC(=O)O)S(=O)(=O)c2ccc(OC)c(OC)c2)cc1	1%
21	O=C(NCCCN1CCOCC1)c1csc2c1CCCC2	-5%
22	O=C(NCc1cccnc1)C1CC(c2ccc(F)cc2)=NO1 (centres undefined)	-3%
23	CCOC(=O)C(C)Oc1cccc2c(=O)n(CC(=O)NCc3ccco3)ccc12 (centres undefined)	6%
24	COc1ccc(CC(=O)Nc2ccc(-c3nc4cc(C)ccc4o3)c(O)c2)cc1OC	1%
25	CCCCc1ccc2[nH]cc(CCN)c2c1	0%
26	Cc1ccc(-n2c(C)nc3c(cnn3-c3ccc(F)cc3)c2=O)cc1C	49%
27	O=C(c1cccc(F)c1)N1CCC2(CCN(Cc3ccncc3)CC2)CC1	9%
28	Cc1n[nH]c(=O)nc1NCCN(C)C	-12%
29	Fc1ccc(CSc2nc3ncccc3[nH]2)cc1	-12%
30	COc1cc2c(cc1OC)C(CCN)=NCC2	2%[5.75 µM]
31	Cc1ccccc1OCC(=O)Nc1ccc(N2CCN(S(C)(=O)=O)CC2)cc1	9%
32	Cc1ccc(C(=O)Nc2ccc3c(c2)OCO3)o1	-7%
33	Cc1nc(N2CCN(C(c3ccccc3)c3ccccc3)CC2)nc2c1C(=O)CCC2	16%
34	CCN(CC)CCn1c2ccccc2c2cnc(N=CN(C)C)c(C#N)c21	67%
35	S=c1nc(-c2ccccc2)n(CCCN2CCOCC2)c2c1CCCC2	-14%
36	COC(=O)Nc1ccc(S(=O)(=O)Nc2ccccc2F)cc1	-12%
37	N#CCCN(Cc1cccnc1)C(=O)Nc1ccc(Cl)c(Cl)c1	3%
38	COC(=O)c1nc2n(n1)C(c1ccc(OC)c(OC)c1OC)C1=C(CCCC1=O)N2 (centres undefined)	2%
39	CCOC(=O)N1CCN(C2=Nc3cccc4cccc2c34)CC1	19%
40	CC(CCc1ccccc1)NC(=O)C1CCN(C(=O)c2sccc2-n2cccc2)CC1 (centres undefined)	92%
41	O=C(Cn1cc2c(n1)CCCC2)NCCc1ccccc1	24%
42	CC1(C)OC(=O)C(C(c2ccccc2)C(C#N)C(N)=O)=C(O)O1 (centres undefined)	18%
43	COc1cc(NC(=O)c2ccc(S(=O)(=O)N(C)C)cc2)cc(OC)c1OC	36%
44	Cc1cc(C)n2c(SCC(=O)N(C)C3CCS(=O)(=O)C3)nnc2n1 (centres undefined)	10%
45	CC(C)SC(=N)N	37%
46	O=S(=O)(Nc1ccc2c(c1)OCCO2)c1ccc(Br)s1	-20%
47	O=C1NCCN1C(=O)c1ccco1	2%
48	Nc1c(C(=O)NCCc2ccccc2)c2nc3ccccc3nc2n1CCN1CCOCC1	210%
49	C=CCN(CC=C)S(=O)(=O)c1ccc(F)cc1	4%
50	COc1ccc(N2CCn3c2nc2c3c(=O)n(CCN3CCOCC3)c(=O)n2C)cc1	11%
51	COc1ccc2cc(C3(C)NC(=O)NC3=O)ccc2c1 (centres undefined)	2%
52	Cc1cc(C(=O)OCC(=O)Nc2ccc(S(=O)(=O)N3CCOCC3)cc2)c(C)o1	39%
53	Cc1ccccc1Nc1nc(N)nc(CSCc2c(C)noc2C)n1	-9%
54	COc1ccc(S(=O)(=O)N(C)CC(=O)Nc2ccccc2C(F)(F)F)cc1OC	39%
55	O=C(OCCCCN1C(=O)c2ccccc2C1=O)c1ccc(S(=O)(=O)N2CCCC2)cc1	43%
56	CCOC(=O)c1c(C)[nH]c(C(C)=O)c1C	12%

New compounds follow.
no.	Compound	AmpC nodet inh
57	CCOc1ccc(NC(=O)Nc2ccc3c(c2)nnn3C)cc1	13%
58	CCOCCSc1nnc2nc(C)cc(C)n12	-6%
59	CCOC(=O)c1oc2ccccc2c1NC(=O)c1ccccc1OC	12%
60	Cc1ccc(S(=O)(=O)N(CC(O)CN2CCCCC2)c2ccccc2)cc1 (centres undefined)	4µM*[single pt active]
61	CC(C)(C)NC(=O)C1CC(=O)OC1(C)C (centres undefined)	24%
62	O=C(c1csnn1)N1CCC2(CCCN(c3ccc(-c4ccccc4)cc3)C2)CC1	10%
63	Cc1ccc(C)c(CN2CCNC2=O)c1	-4%
64	C=CCn1c(COc2ccccc2)nnc1SCc1ccc(C#N)cc1	36%
65	Cc1nc2scc(-c3ccccc3)c2c(=O)n1N	-2%
66	Cn1ccnc1SCC(=O)Nc1ccc(Oc2ccccc2)cc1	21%
67	CC(=O)N1CCc2cc(S(=O)(=O)NCCC(=O)Nc3cccc(C)c3C)ccc21	8%
68	CCn1c(SCCC(=O)Nc2ccccc2)nnc1-c1ccc(OC)cc1	52%
69	O=C(NCC1CCCO1)c1ccc(CS(=O)(=O)c2ccc(Br)cc2)o1 (centres undefined)	18%
70	NC(=O)C1(N2CCCCC2)CCN(C(=O)CSc2nc3ccccc3[nH]2)CC1	5%
71	CCOc1ccc2[nH]c(C)c(CN(C)C)c(=O)c2c1	-3%
72	CC(N)C12CC3CC(C1)CC(C(C)N)(C3)C2 (centres undefined)	-11%
73	Cc1cc(NC(=O)CSc2nc3c(c(=O)n(C)c(=O)n3C)n2C(C)C)no1	16%
74	COc1cccc(CNC(=O)C2CCN(S(=O)(=O)c3cccc4cccnc34)CC2)c1	17%
75	CCOC(=O)c1ccccc1NC(=O)Cn1cnc2c(cnn2C(C)(C)C)c1=O	57%
76	CC1CCN(Cc2nc(-c3ccccc3)no2)CC1	28%
77	O=S(=O)(NCC1CC1)c1cccc(S(=O)(=O)N2CCCC2)c1	7%
78	N[C@H](CS(=O)O)C(=O)O	6%
79	Cc1ccnc(NS(=O)(=O)c2ccc(NS(=O)(=O)Cc3ccccc3)cc2)n1	-15%
80	CCc1ccc(NC2=CC(=O)CC(c3ccco3)C2)cc1 (centres undefined)	2%
81	CN(C)CCCN1c2ccc3ccccc3c2Sc2cccc(Cl)c21	34%[5.75 µM]
82	COc1ccc(C(=O)c2cn[nH]c2-c2cc(Cl)ccc2O)cc1	-12%
83	COc1ccccc1Nc1nc(N)nc(-c2cc3ccccc3o2)n1	42%
84	Cc1ccc(NC(=O)Cc2nn(C)c(=O)c3ccccc23)cc1F	18%
85	CCCOC(=O)C1=C(C)NC2=C(C(=O)CCC2)C1c1cccc(OC)c1OC (centres undefined)	56%
86	CC1Cc2ccccc2N1C(=O)Cn1c(=O)oc2cc(S(=O)(=O)NC3CCCC3)ccc21 (centres undefined)	1%
87	CCOc1cc(S(=O)(=O)N2CCN(c3ccc(F)cc3)CC2)c(OCC)cc1-n1cnnn1	73%
88	O=C(Nc1cccc(-c2nc3ncccc3o2)c1)c1cc2ccccc2o1	84%
89	CN(CC(=O)NC1CCCCCCC1)S(=O)(=O)c1cccc2cccnc12	4µM*[single pt active]
90	CC(C)(C)COS(=O)OCC(C)(C)C	-9%[5.75 µM]
91	Cc1ccc2nc(C(O)C(O)c3nc4ccc(C)cc4[nH]3)[nH]c2c1 (centres undefined)	-1%
92	CCn1c2ccccc2c2nc3cc(S(=O)(=O)N4CCOCC4)ccc3nc21	118%
93	CCOc1ccc(N2C(=O)CC(n3nc(C)cc3C)C2=O)cc1 (centres undefined)	5%
94	COc1ccc(-n2c(SCCC(=O)O)nnc2-c2ccncc2)cc1	-6%
95	CCN(C(=O)CCS(=O)(=O)c1ccc(Br)cc1)c1ccc2c(c1)OCO2	41%
96	CC(Sc1nnc(Cn2c(=O)sc3ccccc32)n1C)c1ccccc1 (centres undefined)	42%

Among those listed so far, 12 have a furan ring, fused or not:
no.	Compound	AmpC nodet inh
14	O=c1c2ccccc2sc2nc(C3CCCCC3)n(Cc3ccco3)c(=O)c12	16%
15	COc1ccccc1N(C)S(=O)(=O)c1ccc(C(=O)OCC(=O)NCc2ccco2)cc1	26%
17	COc1ccc2c(CC(=O)Nc3nnc(C4CC4)s3)coc2c1	-23%
23	CCOC(=O)C(C)Oc1cccc2c(=O)n(CC(=O)NCc3ccco3)ccc12 (centres undefined)	6%
32	Cc1ccc(C(=O)Nc2ccc3c(c2)OCO3)o1	-7%
47	O=C1NCCN1C(=O)c1ccco1	2%
52	Cc1cc(C(=O)OCC(=O)Nc2ccc(S(=O)(=O)N3CCOCC3)cc2)c(C)o1	39%
59	CCOC(=O)c1oc2ccccc2c1NC(=O)c1ccccc1OC	12%
69	O=C(NCC1CCCO1)c1ccc(CS(=O)(=O)c2ccc(Br)cc2)o1 (centres undefined)	18%
80	CCc1ccc(NC2=CC(=O)CC(c3ccco3)C2)cc1 (centres undefined)	2%
83	COc1ccccc1Nc1nc(N)nc(-c2cc3ccccc3o2)n1	42%
88	O=C(Nc1cccc(-c2nc3ncccc3o2)c1)c1cc2ccccc2o1	84%

(continued)
no.	Compound	AmpC nodet inh
97	CCOc1ccccc1C(=O)Nc1ccc(-c2nnc(-c3ccc(C)cc3)o2)cc1	22%
98	Cc1ccc2c(c1)c(-c1ccccc1)nc1nncn12	2.5µM*[single pt active]
99	COC(=O)c1ccsc1NC(=O)CSc1nnnn1Cc1ccccc1	14%
100	COc1ccc(-c2nn3c(-c4ccccc4)nnc3s2)cc1OC	131%
101	CC(=O)Nc1ccc(N2C(=O)CSC2c2ccc(F)cc2)cc1 (centres undefined)	5%
102	CCn1c(-c2ccsc2)nc2c1c(=O)[nH]c(=O)n2Cc1ccccc1	10%
103	Cc1cccc(OCC(=O)Nc2ccc(N3CCCC3)cc2)c1C	13%
104	O=C1CCN=C(Nc2ccc(F)cc2)N1Cc1ccccc1	-2%
105	Brc1ccc(-c2nnc3n2-c2ccccc2CC3)cc1	52%
106	CCOc1ccc(CNC(=O)C2CCN(S(=O)(=O)CC)CC2)cc1OC	1%
107	CCN(CC)C(=O)CSc1nnc(-c2ccco2)n1Cc1ccco1	9%
108	CCN(CC)CC(O)COc1ccccc1C(=O)CCc1ccccc1 (centres undefined)	31%
109	OCCNc1ncnc2c1ncn2[C@@H]1O[C@@H](CO)[C@H](O)[C@@H]1O	-3%[5.75 µM]
110	CCc1cccc(OCC(=O)Nc2ccc(S(=O)(=O)Nc3onc(C)c3C)cc2)c1	4µM*[single pt active]
111	COc1ccccc1NC(=O)CN1CCN(CC(=O)Nc2cc(NC(C)=O)ccc2OC)CC1	87%
112	COc1ccc(C)cc1-n1nnnc1SCC(=O)c1cc(C)n(Cc2ccco2)c1C	?
113	CC(OC(=O)c1cc2sccc2n1C)C(=O)NCC1CCCO1 (centres undefined)	17%
114	O=S(=O)(NCCc1csc(-c2ccccc2)n1)c1ccc2c(c1)OCCO2	-3%
115	CCOC(=O)c1c(CN2CCOCC2)n(-c2ccccc2)c2ccc(O)cc12	52%
116	CCOCCCNC(=O)c1ccc2c(c1)OCO2	-3%
117	Cc1nnc(Sc2nc3c(c(=O)n(C)c(=O)n3C)n2Cc2ccc(Cl)cc2)s1	79%
118	Cc1cc(C)n(-c2nc(SCC(=O)NCC3CCCO3)c3c4c(sc3n2)CCCC4)n1 (centres undefined)	133%
119	CCCc1cc(=O)[nH]c(Nc2cc(OC)ccc2OC)n1	2%
120	CCNS(=O)(=O)c1ccc(OCCNS(C)(=O)=O)cc1	9%
121	CN(C(=O)CSc1nc(N)nn1-c1ccccc1)c1ccccc1	27%
122	COc1cccc(NC(=O)CSc2nnc(Cn3c(=O)sc4ccccc43)n2C)c1	?
123	Cn1c(=O)cc(OCC(=O)NCc2cccnc2)c2ccccc21	-10%
124	COCCN(CCOC)Cc1c(C)[nH]c2c(C)c(C)ccc2c1=O	-8%
125	CCN(CC)S(=O)(=O)c1cccc(-c2nnc(SCCCC(=O)c3ccc(F)cc3)o2)c1	15%
126	O=C(Nc1nc2nc(-c3ccccc3)cc(-c3ccccc3)n2n1)c1ccco1	7%
127	C/C=C/COc1nc2c(c(=O)n(C)c(=O)n2C)n1C	2%
128	COc1ccc(OC)c(S(=O)(=O)Nc2c(F)cccc2F)c1	4%
129	O=C(NC1=NCCS1)c1cccc(NC(=O)c2ccco2)c1	-10%
130	CCSc1nnc(-c2ccc(S(=O)(=O)NCc3cccs3)cc2)o1	-6%

Screening data (PubChem)
